HIV Env fusion: blocks HIV Env-driven cell-cell fusion. inhibition, % at 12.3 µM. actives 1.1% (n = 360,000). HeLa-JRFL Env/CEM21 cell fusion, luciferase;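 active = mean replicate inhibition score of at least 50 and every replicate individually at or above 50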;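 also: 0% = plate neutral controls and 100% = maraviroc near 300 nM; one replicate is shown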
UUG fidelity: modulators of start codon recognition fidelity in yeast | actives 0.13% (n = 350,000) | S. cerevisiae UUG-firefly luciferase reporter, luminescence/redox ratio | AID 602363 | activity score, % at 18.7 µM;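 active = replicate mean at a twofold rise or more, about +100% in these data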;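 also: firefly luciferase made from a UUG start codon reports start codon fidelity; reporter light over untreated wells divided by growth signal over untreated wells; some hits fall short of that in this replicate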
The depositor's hits bear a star; & = joins results of further samples; [ ] = another dose, or the depositor's remark. These rows are one share of the data; rates above refer to the full screens.

Sample of the layout (2 entries):
HIV Env fusion,UUG fidelity,compound
-8[16.7 µM],-5,Cc1ccc(-c2cnc3c(c2)C(=O)N([C@H](C)CO)C[C@H](C)[C@@H](CN(C)C(=O)c2ccncc2)O3)cc1
-10[16.7 µM],22,O=C(Nc1ccc(Cl)cc1)N[C@H]1CC[C@@H](CCNS(=O)(=O)c2ccccc2F)O[C@H]1CO

The listing (from the top)
HIV Env fusion,UUG fidelity,compound
-8[16.7 µM],-5,Cc1ccc(-c2cnc3c(c2)C(=O)N([C@H](C)CO)C[C@H](C)[C@@H](CN(C)C(=O)c2ccncc2)O3)cc1
-10[16.7 µM],22,O=C(Nc1ccc(Cl)cc1)N[C@H]1CC[C@@H](CCNS(=O)(=O)c2ccccc2F)O[C@H]1CO
18[16.7 µM],2,CCO[C@@H]1OC(C(=O)N2CCN(Cc3ccc4c(c3)OCO4)CC2)=C[C@H](C(C)(C)C)[C@H]1CCCO
30[16.7 µM],5,C[C@@H]1CN([C@@H](C)CO)C(=O)c2cccc(NC(=O)c3ccncc3)c2O[C@H]1CN(C)Cc1ccc(Cl)c(Cl)c1
15[16.7 µM],-16,C[C@H]1CN([C@@H](C)CO)C(=O)c2cccc(NC(=O)C3CC3)c2O[C@H]1CN(C)Cc1ccc(C(=O)O)cc1
6[16.7 µM],-7,C[C@H](CO)N1C[C@H](C)[C@H](CN(C)Cc2ccncc2)OCCCC[C@H](C)Oc2ccc(NC(=O)CCCN(C)C)cc2C1=O
-1[16.7 µM],0,Cc1ccc(-c2cnc3c(c2)C(=O)N([C@H](C)CO)C[C@H](C)[C@H](CN(C)C(=O)c2ccccc2)O3)cc1
15[16.7 µM],-2,C[C@H](CO)N1C[C@H](C)[C@@H](CN(C)Cc2ccncc2)OCCCC[C@H](C)Oc2ccc(NC(=O)Nc3ccc(F)cc3)cc2C1=O
20[16.7 µM],8,CCCC(=O)Nc1ccc2c(c1)OC[C@H](C)N(C(=O)c1ccncc1)C[C@H](C)[C@H](OC)CN(C)C2=O
7[16.7 µM],22,C[C@@H]1CN([C@@H](C)CO)C(=O)c2cc(NC(=O)CCC(F)(F)F)ccc2O[C@@H](C)CCCCO[C@H]1CN(C)C(=O)C1CCCCC1
2[16.7 µM],-4,O=C(Nc1ccc(F)cc1)N[C@@H]1CC[C@@H](CCNS(=O)(=O)c2cccc(Cl)c2)O[C@H]1CO
7[16.7 µM],4,C[C@@H]1CN([C@H](C)CO)C(=O)Cc2cc(NC(=O)CCN3CCOCC3)ccc2O[C@H]1CN(C)C(=O)NC1CCCCC1
9[16.7 µM],-4,C[C@@H]1CN([C@@H](C)CO)C(=O)c2cccc(NS(=O)(=O)c3ccccc3)c2O[C@@H]1CN(C)S(=O)(=O)c1cn(C)cn1
12[16.7 µM],-8,Cc1noc(C)c1S(=O)(=O)Nc1ccc2c(c1)C(=O)N([C@@H](C)CO)C[C@H](C)[C@H](CN(C)S(=O)(=O)c1ccc(Cl)cc1)OCCCC[C@H](C)O2
-14[16.7 µM],-2,COc1ccc(NC(=O)N(C)C[C@@H]2Oc3ccc(NS(=O)(=O)c4ccc(Cl)cc4)cc3CC(=O)N([C@H](C)CO)C[C@H]2C)cc1
-8[16.7 µM],3,CC(C)NC(=O)N(C)C[C@H]1Oc2c(NS(=O)(=O)c3ccc(Cl)cc3)cccc2C(=O)N([C@H](C)CO)C[C@H]1C
-3[16.7 µM],-5,C[C@H]1CCCCO[C@@H](CN(C)CC2CCCCC2)[C@@H](C)CN([C@@H](C)CO)C(=O)c2cc(NC(=O)Nc3ccc4c(c3)OCO4)ccc2O1
5[16.7 µM],-20,C[C@@H]1CCCCO[C@H](CN(C)S(=O)(=O)c2cn(C)cn2)[C@H](C)CN([C@H](C)CO)C(=O)c2cc(NC(=O)CCCN(C)C)ccc2O1
12[16.7 µM],-6&20,C[C@@H]1CN([C@@H](C)CO)C(=O)c2cc(C#CCN(C)C)cnc2O[C@H]1CN(C)Cc1ccc(-c2ccccc2)cc1
-3[16.7 µM],-10,CO[C@@H]1CN(C)C(=O)c2cc(NC(=O)NC3CCCCC3)ccc2OC[C@H](C)N(C)C[C@H]1C
35[16.7 µM],-7,O=C(Nc1ccc(Cl)cc1)N[C@H]1CC[C@H](CCn2cc(C3(O)CCCC3)nn2)O[C@@H]1CO
-22[16.7 µM],-10,Cc1noc(C)c1S(=O)(=O)N(C)C[C@H]1OCCCC[C@@H](C)Oc2ccc(NC(=O)Nc3ccccc3)cc2C(=O)N([C@H](C)CO)C[C@@H]1C
18[16.7 µM],9,O=C(CCN1CCCCC1)NCC[C@@H]1CC[C@H](NC(=O)C2CCCC2)[C@H](CO)O1
-26[16.7 µM],15,C[C@H]1CN([C@@H](C)CO)C(=O)c2cc(NC(=O)C3CCCCC3)ccc2O[C@H]1CN(C)Cc1ccc(C(=O)Nc2ccccc2N)cc1
21[16.7 µM],2,C[C@H]1CN([C@@H](C)CO)S(=O)(=O)c2ccc(C#Cc3ccccc3F)cc2O[C@@H]1CN(C)C
3[16.7 µM],-3,CNC(=O)C[C@H]1CC[C@H]2[C@H](COc3ccc(NC(=O)c4ccc(OC)cc4)cc3C(=O)N2C)O1
0[16.7 µM],-1,C[C@@H]1CN([C@H](C)CO)C(=O)c2cccc(NS(C)(=O)=O)c2O[C@@H]1CN(C)C
22[16.7 µM],7,CC(C)NC(=O)N(C)C[C@H]1OCCCC[C@H](C)Oc2ccc(NS(C)(=O)=O)cc2C(=O)N([C@@H](C)CO)C[C@H]1C
1[16.7 µM],6,CO[C@H]1CN(C)C(=O)c2cc(NC(=O)NC3CCCCC3)ccc2OC[C@@H](C)N(C)C[C@@H]1C
13[16.7 µM],3,O=C(C[C@H]1CC[C@H](NC(=O)NC2CCCCC2)[C@@H](CO)O1)NCc1ccc(F)cc1
16[16.7 µM],28,COc1ccc(NC(=O)Nc2cccc3c2O[C@@H](CN(C)C(=O)Nc2ccc(C(F)(F)F)cc2)[C@H](C)CN([C@H](C)CO)C3=O)cc1
-4[16.7 µM],-9,O=C(Nc1ccc2c(c1)[C@H]1C[C@H](CC(=O)N3CCc4ccccc4C3)O[C@@H](CO)[C@H]1O2)NC1CCCC1
-10[16.7 µM],10,COc1ccc(CN(C)C[C@@H]2OCCCC[C@@H](C)Oc3ccc(NC(=O)NC(C)C)cc3C(=O)N([C@@H](C)CO)C[C@@H]2C)cc1
19[16.7 µM],-9,CCC(=O)N[C@H]1C=C[C@H](CC(=O)NCC2CCCCC2)O[C@H]1CO
-49[16.7 µM],-6,C[C@@H]1CN([C@H](C)CO)C(=O)c2cc(-c3cccc(F)c3)cnc2O[C@H]1CN(C)S(=O)(=O)c1cccc(F)c1
-10[16.7 µM],-16,O=C(C[C@H]1C=C[C@@H](NS(=O)(=O)c2ccc(F)cc2)[C@@H](CO)O1)NCCc1ccncc1
8[16.7 µM],-3,Cc1ccccc1NC(=O)Nc1ccc2c(c1)C(=O)N(C)[C@H]1CC[C@@H](CC(=O)O)O[C@@H]1CO2
51[16.7 µM],-6,C[C@H](NC(=O)C[C@H]1C=C[C@@H](NC(=O)CN2CCOCC2)[C@H](CO)O1)c1ccccc1
-7[16.7 µM],48,COc1ccc(NC(=O)Nc2ccc3c(c2)C(=O)N([C@@H](C)CO)C[C@H](C)[C@@H](CN(C)C)OCCCC[C@@H](C)O3)cc1
-33[16.7 µM],2,COc1ccc(NC(=O)N(C)C[C@@H]2OCCCC[C@@H](C)Oc3ccc(NC(=O)NC4CCCCC4)cc3C(=O)N([C@H](C)CO)C[C@@H]2C)cc1
0[16.7 µM],8,COCCCNC(=O)[C@@]1(Cc2ccccc2)COC(c2ccc(OCCCO)cc2)=N1
-20[16.7 µM],9,C[C@@H]1CN([C@@H](C)CO)C(=O)c2cc(NS(=O)(=O)c3cccs3)ccc2O[C@@H](C)CCCCO[C@@H]1CN(C)Cc1ccc(C(=O)O)cc1
-8[16.7 µM],-5,COc1ccccc1NC(=O)N(C)C[C@@H]1Oc2ncc(C#CCN(C)C)cc2C(=O)N([C@H](C)CO)C[C@@H]1C
-9[16.7 µM],-5,CNC[C@@H]1Oc2cc(C#C[C@@H](C)O)ccc2S(=O)(=O)N([C@@H](C)CO)C[C@H]1C
-9[16.7 µM],-2,CO[C@@H]1CN(C)C(=O)c2cc(NS(=O)(=O)c3cccc(C)c3)ccc2OC[C@H](C)NC[C@H]1C
-5[16.7 µM],-4,C[C@H](CO)N1C[C@H](C)[C@@H](CN(C)Cc2ccc3c(c2)OCO3)Oc2ncc(C#CCN(C)C)cc2C1=O
-11[16.7 µM],1,C[C@H]1CN([C@@H](C)CO)C(=O)c2cccc(NC(=O)C3CC3)c2O[C@@H]1CN(C)Cc1ccc(C(=O)O)cc1
-23[16.7 µM],1,C[C@@H]1CN([C@H](C)CO)C(=O)c2cccc(NC(=O)c3ccc(-c4nccs4)cc3)c2O[C@H]1CN(C)S(C)(=O)=O
-22[16.7 µM],6,C[C@H]1CN([C@@H](C)CO)C(=O)c2cc(C#Cc3ccccn3)cnc2O[C@H]1CN(C)Cc1ccncc1
-2[16.7 µM],1,C[C@@H]1CN([C@H](C)CO)C(=O)Cc2cc(NC(=O)NC3CCCCC3)ccc2O[C@@H]1CN(C)Cc1ccc(Cl)c(Cl)c1
5[16.7 µM],10,C[C@@H]1CN([C@H](C)CO)C(=O)c2cccc(NC(=O)c3cnccn3)c2O[C@H]1CN(C)Cc1ccc2c(c1)OCO2
14[16.7 µM],24,C[C@@H]1CN([C@H](C)CO)C(=O)Cc2cc(NS(C)(=O)=O)ccc2O[C@H]1CN(C)Cc1ccc(C(F)(F)F)cc1
-14[16.7 µM],-15,COC(=O)C[C@H]1CC[C@@H]2[C@H](COc3ccc(NS(C)(=O)=O)cc3C(=O)N2C)O1
-14[16.7 µM],2,C[C@H](CO)N1C[C@H](C)[C@@H](CN(C)C(=O)C2CCCCC2)OCCCC[C@H](C)Oc2ccc(NC(=O)Nc3ccccc3)cc2C1=O
6[16.7 µM],1,COc1ccc(NC(=O)N(C)C[C@@H]2Oc3ccc(NC(=O)Cc4ccccc4)cc3C(=O)N([C@H](C)CO)C[C@@H]2C)cc1
-3[16.7 µM],4,O=C(Nc1ccccc1F)N[C@H]1CC[C@@H](CCNC(=O)C2CCOCC2)O[C@@H]1CO
-17[16.7 µM],-6,COc1ccc(NC(=O)N(C)C[C@H]2Oc3ccc(NC(=O)C4CCCCC4)cc3CC(=O)N([C@@H](C)CO)C[C@@H]2C)cc1
16[16.7 µM],16,C[C@H](CO)N1C[C@H](C)[C@@H](CN(C)C(=O)Nc2ccc(C(F)(F)F)cc2)Oc2ccc(NC(=O)Cc3ccccc3)cc2CC1=O
-22[16.7 µM],12,CC(C)CC#Cc1ccc2c(c1)O[C@H](CN(C)C(=O)c1cccnc1)[C@@H](C)CN([C@H](C)CO)S2(=O)=O
3[16.7 µM],6,CO[C@@H]1CN(C)C(=O)c2cc(NC(=O)c3ccc(F)cc3)ccc2OC[C@H](C)N(C)C[C@@H]1C

More structures:
HIV Env fusion,UUG fidelity,compound
-4[16.7 µM],28,CCCC(O)C#Cc1cnc2c(c1)C(=O)N([C@H](C)CO)C[C@H](C)[C@H](CN(C)C(=O)Nc1ccc(F)cc1)O2 (stereo partly specified)
12[16.7 µM],-2,O=C(C[C@H]1C=C[C@H](NC(=O)Nc2ccccc2F)[C@H](CO)O1)NCc1ccc(Cl)cc1
0[16.7 µM],-2,O=C(N[C@@H]1CC[C@H](CCNS(=O)(=O)c2ccccc2Cl)O[C@H]1CO)c1ccccc1
5[16.7 µM],7,O=C(C[C@@H]1CC[C@H]2[C@@H](COC[C@H](O)CN2C(=O)Nc2ccc(C(F)(F)F)cc2)O1)NC1Cc2ccccc2C1
-46[16.7 µM],27,C[C@H](CO)N1C[C@H](C)[C@@H](CN(C)Cc2cccc(C(=O)O)c2)Oc2ncc(-c3ccccc3F)cc2C1=O
-10[16.7 µM],8,CNC(=O)C[C@H]1CC[C@H]2[C@H](COc3ccc(NC(=O)Nc4ccccc4F)cc3C(=O)N2C)O1
10[16.7 µM],5,COc1ccc(COCC23N=C4SCc5ccccc5C(=O)N4[C@H](c4ccccc4O2)[C@H]3CO[Si](C)(C)C(C)(C)C)cc1
7[16.7 µM],8,C[C@H](CO)N1C[C@H](C)[C@@H](CN(C)Cc2ccc(-c3ccccc3)cc2)Oc2ccc(NC(=O)Nc3ccc(C(F)(F)F)cc3)cc2C1=O
-3[16.7 µM],12,C[C@@H]1CN([C@@H](C)CO)C(=O)c2cc(NC(=O)C3CCCCC3)ccc2O[C@@H](C)CCCCO[C@@H]1CN(C)C(=O)c1ccccc1
-12[16.7 µM],2,O=C(NCC[C@@H]1CC[C@H](NC(=O)C2CCCCC2)[C@H](CO)O1)c1ccc(F)cc1
14[16.7 µM],3,COCC#Cc1ccc2c(c1)O[C@H](CN(C)C(=O)CC1CC1)[C@H](C)CN([C@@H](C)CO)S2(=O)=O

Some of the entries so far, with each value named:
Cc1noc(C)c1S(=O)(=O)Nc1ccc2c(c1)C(=O)N([C@@H](C)CO)C[C@H](C)[C@H](CN(C)S(=O)(=O)c1ccc(Cl)cc1)OCCCC[C@H](C)O2
  HIV Env fusion: 12[16.7 µM]	UUG fidelity: -8

C[C@H](CO)N1C[C@H](C)[C@@H](CN(C)Cc2cccc(C(=O)O)c2)Oc2ncc(-c3ccccc3F)cc2C1=O
  HIV Env fusion: -46[16.7 µM]	UUG fidelity: 27

C[C@@H]1CCCCO[C@H](CN(C)S(=O)(=O)c2cn(C)cn2)[C@H](C)CN([C@H](C)CO)C(=O)c2cc(NC(=O)CCCN(C)C)ccc2O1
  HIV Env fusion: 5[16.7 µM]	UUG fidelity: -20

O=C(Nc1ccc(Cl)cc1)N[C@H]1CC[C@@H](CCNS(=O)(=O)c2ccccc2F)O[C@H]1CO
  HIV Env fusion: -10[16.7 µM]	UUG fidelity: 22

High-throughput results from PubChem.
